Vaccinia inh = Vaccinia orthopox stage-specific inhibition. Vaccinia-infected cells, mCherry/Venus stage reporter fluorescence; hits give low values; some inactives read as strong as hits. activity change (mCherry), % (test concentration not listed). 0.01% of 89,000 active. AID 1053133;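 active = mCherry past -33% and 40 or more points under the early reporter, replicates agreeing; inconclusive = past -33% without that gap or agreement; tested in A549 cells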;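 note: scaled between vehicle wells and reference inhibitor wells; 23 nL library stock went into each well; one replicate is shown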
Vaccinia inh Venus = second read-out of Vaccinia inh, no call of its own (marks repeat the call); activity change (Venus), %; measured here: Venus reporter, other viral stage;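 negative = less Venus signal; first of two replicates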
* = called active by the depositor; ? = inconclusive; / = no result given. These rows are one share of the data, so the mix of outcomes need not match the whole.

smiles | Vaccinia inh | Vaccinia inh Venus
C[C@@H]1CN([C@H](C)CO)C(=O)Cc2cc(NC(=O)Cc3cn(C)c4ccccc34)ccc2O[C@@H]1CN(C)S(=O)(=O)c1cn(C)cn1 | 6 | 12
CCC(=O)Nc1ccc2c(c1)C(=O)N(C)C[C@@H](OC)[C@@H](C)CN(C(=O)c1ccncc1)[C@H](C)CO2 | 29 | 21
C[C@H]1CN([C@@H](C)CO)C(=O)c2cccc(NS(=O)(=O)c3cn(C)cn3)c2O[C@@H]1CN(C)Cc1ccc(Cl)c(Cl)c1 | 3 | 0
C[C@@H]1CN([C@H](C)CO)S(=O)(=O)c2ccc(C3=CCCC3)cc2O[C@H]1CN(C)C(=O)Nc1ccc2c(c1)OCO2 | ? | /
CCC(=O)Nc1ccc2c(c1)C(=O)N(C)C[C@H](OC)[C@H](C)CN(C(=O)Cc1ccccn1)[C@@H](C)CO2 | 5 | 8
CCCC(=O)Nc1ccc2c(c1)OC[C@H](C)N(C(=O)c1cnccn1)C[C@@H](C)[C@H](OC)CN(C)C2=O | 10 | 13
COc1ccc(NC(=O)Nc2cccc3c2O[C@H](CN(C)S(=O)(=O)c2ccccc2)[C@@H](C)CN([C@H](C)CO)C3=O)cc1 | 4 | -3
COc1ccccc1-c1cn(CC[C@H]2CC[C@H](NS(=O)(=O)c3ccccc3C)[C@@H](CO)O2)nn1 | -33 | -25
C[C@@H]1CN([C@@H](C)CO)C(=O)Cc2cc(N(C)C)ccc2O[C@@H]1CN(C)Cc1ccc(C(=O)O)cc1 | 21 | 10
CCO[C@@H]1OC(C(=O)Nc2ccccc2)=C[C@H](c2ccccc2)[C@H]1CCCO | -2 | -1
CCC(=O)N1CC2(C1)CN(C(=O)Nc1ccccc1F)[C@H](CO)c1c2c2ccc(OC)cc2n1C | 6 | -7
C[C@@H]1CN([C@H](C)CO)C(=O)c2cc(NS(=O)(=O)c3ccc(F)cc3)ccc2O[C@H]1CN(C)S(=O)(=O)c1cn(C)cn1 | 3 | 3
COc1ccc(S(=O)(=O)Nc2ccc3c(c2)C(=O)N([C@@H](C)CO)C[C@@H](C)[C@H](CN(C)Cc2ccc(C(F)(F)F)cc2)OCCCC[C@H](C)O3)cc1 | ? | /
C[C@@H]1CN([C@H](C)CO)C(=O)Cc2cc(NS(C)(=O)=O)ccc2O[C@@H]1CN(C)Cc1ccccc1 | 4 | 0
CC(C)N(C[C@H]1N[C@H](CO)[C@@H]1c1ccc(C2=CCCCC2)cc1)C(=O)CN(C)C | ? | /
C[C@H](CO)N1C[C@H](C)[C@H](CN(C)Cc2ccc(C(=O)O)cc2)Oc2c(NC(=O)c3ccncc3)cccc2C1=O | 19 | 4
CCCNC(=O)Nc1ccc2c(c1)OC[C@@H](C)N(C)C[C@H](C)[C@H](OC)CN(C)C2=O | 13 | 9
O=C(C[C@H]1CC[C@H]2[C@@H](COC[C@@H](O)CN2S(=O)(=O)c2ccc(Cl)cc2)O1)NCCN1CCCCC1 | 7 | 3
CCCNC(=O)N1C[C@@H]2[C@H](c3ccccc31)[C@H](CO)N2Cc1ccc(OC)cc1 | 4 | 3
CC(=O)N1[C@H](CN(C)C(=O)CN2CCOCC2)[C@@H](c2ccccc2)[C@@H]1CO | 0 | 3
C[C@@H]1CN([C@@H](C)CO)S(=O)(=O)c2ccc(C#Cc3cccc(F)c3)cc2O[C@H]1CN(C)C(=O)NC1CCCCC1 | ? | /
O=C(c1ccccc1)N1C[C@@H]2[C@H](c3ccccc31)[C@H](CO)N2C(=O)c1cccc(F)c1 | -2 | 12
COCC(=O)N1CCC2(CC1)CN(C(=O)Cc1ccccc1)[C@H](CO)c1c2c2ccc(OC)cc2n1C | -7 | -1
COc1ccc(CN(C)C[C@H]2OCCCC[C@H](C)Oc3ccc(NC(=O)Nc4ccc(F)cc4)cc3C(=O)N([C@@H](C)CO)C[C@H]2C)cc1 | ? | /
O=C(C[C@H]1C=C[C@H](NC(=O)c2cccc(F)c2)[C@H](CO)O1)Nc1nccs1 | 9 | 13
C[C@H](CO)N1C[C@H](C)[C@@H](CN(C)C(=O)c2ccccc2)OCc2cn(nn2)CCCC1=O | 6 | 7
Cc1ccc(S(=O)(=O)N(C)C[C@@H]2Oc3c(NC(=O)Nc4ccc5c(c4)OCO5)cccc3C(=O)N([C@@H](C)CO)C[C@H]2C)cc1 | 13 | 8
C[C@@H]1CN([C@@H](C)CO)C(=O)c2cc(NC(=O)Nc3ccc(F)cc3)ccc2O[C@H]1CN(C)C(=O)Nc1ccc(F)cc1 | 7 | 7
CCCN1C[C@H](C)[C@H](OC)CN(C)C(=O)c2ccc(NC(=O)C3CCOCC3)cc2OC[C@H]1C | 20 | 7
Cc1ccc(F)cc1S(=O)(=O)N[C@H]1CCN(Cc2ccc(OC(C)C)cc2)C1 | -15 | -8
O=C(C[C@@H]1CC[C@H]2[C@@H](COC[C@H](O)CN2Cc2ccccc2)O1)NCCc1ccccc1 | -7 | -3
CN(C)C(=O)C[C@H]1C[C@H]2c3cc(NC(=O)C4CCOCC4)ccc3O[C@H]2[C@H](CO)O1 | 6 | 0
O=C(C[C@@H]1CC[C@@H]2[C@H](COC[C@H](O)CN2C(=O)c2ccc(F)cc2)O1)Nc1nccs1 | 11 | 4
O=C(C[C@@H]1CC[C@@H]2[C@H](COC[C@H](O)CN2S(=O)(=O)c2ccccc2)O1)N1CCOCC1 | 15 | 18
Cc1ccccc1-c1ccc2c(c1)O[C@H](CN(C)C)[C@@H](C)CN([C@H](C)CO)S2(=O)=O | -12 | -10
C[C@H](CO)N1C[C@H](C)[C@H](CN(C)S(C)(=O)=O)Oc2ccc(NC(=O)CCN3CCOCC3)cc2C1=O | 4 | -2
C[C@H](CO)N1C[C@H](C)[C@H](CN(C)C(=O)Nc2ccc3c(c2)OCO3)Oc2ncc(C#Cc3ccc(C(F)(F)F)cc3)cc2C1=O | ? | /
CCNC(=O)[C@@H]1[C@@H](CO)[C@@H]2Cn3c(ccc(-c4cccc(OC)c4)c3=O)[C@@H]2N1Cc1nccs1 | 20 | 15
O=C(C[C@@H]1CC[C@@H](NC(=O)Nc2ccccc2)[C@@H](CO)O1)NCc1cccc(F)c1 | 3 | 2
CC(C)NC(=O)N(C)C[C@H]1Oc2ncc(-c3ccc(C(=O)N(C)C)cc3)cc2C(=O)N([C@H](C)CO)C[C@@H]1C | 27 | 12
COC(=O)C[C@H]1CC[C@H]2[C@@H](COc3ccc(NC(=O)c4ccc(OC)cc4)cc3C(=O)N2C)O1 | 5 | 0
C[C@@H]1CN([C@@H](C)CO)C(=O)c2cc(C3=CCCCC3)cnc2O[C@@H]1CN(C)C(=O)c1ccncc1 | -3 | 1
C[C@H](CO)N1C[C@H](C)[C@@H](CN(C)Cc2ccc(Cl)c(Cl)c2)Oc2ccc(NC(=O)CCCCCC(=O)Nc3ccccc3N)cc2CC1=O | -19 | -5
Cc1noc(C)c1S(=O)(=O)N(C)C[C@H]1OCCCC[C@@H](C)Oc2ccc(NS(=O)(=O)c3ccc(Cl)cc3)cc2C(=O)N([C@@H](C)CO)C[C@H]1C | ? | /
CN(C)CC#Cc1cccc(-c2nc(C(=O)NCc3ccc4c(c3)OCO4)cc3c2[C@@H](CCO)N(S(=O)C(C)(C)C)C3)c1 (stereo partly drawn) | 29 | 32
COCC#Cc1ccc2c(c1)O[C@H](CN(C)Cc1ccccc1F)[C@@H](C)CN([C@H](C)CO)S2(=O)=O | -25 | -23
COc1ccc(S(=O)(=O)N[C@H]2CC[C@H](CCn3cc(C(C)C)nn3)O[C@H]2CO)cc1 | 2 | -1
C[C@H]1CN([C@@H](C)CO)C(=O)c2cccc(NC(=O)Nc3ccc4c(c3)OCO4)c2O[C@@H]1CN(C)C | 5 | -3
C[C@@H]1CN([C@H](C)CO)C(=O)c2cc(-c3cncnc3)cnc2O[C@@H]1CN(C)C(=O)Cc1cccnc1 | 31 | 13
O=C(C[C@@H]1CC[C@@H]2[C@H](COC[C@H](O)CN2S(=O)(=O)c2cccc(Cl)c2)O1)NC1Cc2ccccc2C1 | -18 | -17

(continued)
smiles | Vaccinia inh | Vaccinia inh Venus
CN(C)C(=O)C[C@H]1CC[C@@H](NC(=O)C2CCOCC2)[C@H](CO)O1 | 16 | 23
CC(C)(C)[S@](=O)N1Cc2cc(C(=O)NCc3ccncc3)nc(-c3cccc(-c4ccc(C#N)cc4)c3)c2[C@@H]1CCO | 6 | 22
O=C(Nc1cccc(F)c1)N1CC(=O)N2[C@H](C1)[C@@H](c1ccc(-c3cccc(F)c3)cc1)[C@@H]2CO | ? | /
C[C@H]1CN([C@@H](C)CO)C(=O)c2cc(NC(=O)Nc3ccccc3)ccc2O[C@@H]1CN(C)C(=O)NC1CCCCC1 | 11 | 7
Cc1ccccc1S(=O)(=O)N1CC(=O)N2[C@H](CO)[C@H](c3ccc(C#Cc4ccccc4)cc3)[C@@H]2C1 | 9 | 3
CC(C)NC(=O)N(C)C[C@H]1Oc2ccc(NS(=O)(=O)c3ccc(Cl)cc3)cc2CC(=O)N([C@@H](C)CO)C[C@H]1C | 8 | 6
CCNC(=O)[C@@H]1[C@@H](CO)[C@@H]2Cn3c(ccc(-c4ccccc4)c3=O)[C@@H]2N1Cc1ccccc1 | -7 | 0
CC(C)CC#Cc1ccc2c(c1)O[C@@H](CN(C)C(=O)NC1CCCC1)[C@@H](C)CN([C@H](C)CO)S2(=O)=O | ? | /
N#C[C@@H]1[C@@H](c2ccccc2C2=CCCC2)[C@H](CO)N1C(=O)NC1CCCC1 | -18 | -7
CO[C@@H]1CN(C)C(=O)c2ccc(NC(=O)c3cccc(F)c3)cc2OC[C@@H](C)NC[C@H]1C | -6 | -7
O=C(C[C@@H]1CC[C@H]2[C@@H](COC[C@@H](O)CN2Cc2cccc(Cl)c2)O1)NCC1CCCCC1 | ? | /
O=C(C[C@@H]1CC[C@@H]2[C@H](COC[C@@H](O)CN2Cc2cccc(F)c2)O1)NCC1CCCCC1 | -11 | -6
Cc1ccc(S(=O)(=O)Nc2ccc3c(c2)C(=O)N([C@@H](C)CO)C[C@@H](C)[C@@H](CN(C)S(=O)(=O)c2ccc(F)cc2)OCCCC[C@@H](C)O3)cc1 | -27 | -16
COc1ccccc1S(=O)(=O)N(C)C[C@@H]1OCc2cnnn2CCCC(=O)N([C@@H](C)CO)C[C@H]1C | 9 | 2
Cc1noc(C)c1NC(=O)N(C)C[C@H]1Oc2ccc(NS(=O)(=O)c3ccc(Cl)cc3)cc2C(=O)N([C@H](C)CO)C[C@H]1C | 13 | 14
COc1ccc2c3c([nH]c2c1)[C@H](CO)N(S(C)(=O)=O)CC31CCN(CC2CCCCC2)CC1 | -26 | -18
CC(C)C#Cc1ccc([C@@H]2[C@@H](CO)N3CCCCN(S(=O)(=O)Cc4ccccc4)C[C@@H]23)cc1 | -6 | -7
CC(C)C#Cc1cnc2c(c1)C(=O)N([C@@H](C)CO)C[C@@H](C)[C@@H](CN(C)C(=O)c1cnccn1)O2 | 10 | -6
CCCN1[C@@H]2c3ccc(C4=CCCCC4)c(=O)n3C[C@H]1[C@H](CO)[C@H]2C(=O)NCCOC | 17 | 3
CCCC#Cc1ccc([C@@H]2[C@@H](CO)N3C(=O)CN(C(=O)Cc4cccnc4)C[C@H]23)cc1 | -3 | -10
COCC(=O)N(C)C[C@H]1Oc2ncc(-c3ccccc3C)cc2C(=O)N([C@H](C)CO)C[C@H]1C | 18 | 13
CC(C)NC(=O)N[C@H]1C=C[C@@H](CC(=O)NCc2ccc(Oc3ccccc3)cc2)O[C@H]1CO | -11 | 6
O=C1O[C@@H](c2ccccc2)[C@@H](c2ccccc2)N2[C@@H](c3ccc(OCCO)cc3)[C@]3(C(=O)Nc4ccccc43)[C@@H](C(=O)Nc3nc4ccccc4s3)[C@H]12 | 5 | -6
COCC(=O)N(C)C[C@H]1Oc2cc(-c3cncnc3)ccc2S(=O)(=O)N([C@H](C)CO)C[C@H]1C | 20 | 8

Screening data deposited in PubChem by Broad Institute.
